Screens as filed in PubChem.
Mtb betalactam: beta-lactam sensitization of Mtb H37Rv | M. tuberculosis H37Rv growth with meropenem, percent inhibition; hits of this screen are not shown here | inhibition, % at 25 µM | 0.27% of 330,000 active;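 active means about 74% or more and at least 40 points above the plate without the antibiotic, then above 30% in a dose series; inconclusive means first-round hits that could not be retested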;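 further: growth measured after seven days incubation then overnight dye step; 0% = bacteria only wells and 100% = bacteria with antibiotic; twin plates without the antibiotic show which effects depend on it; some results filed as inactive read as strong as hits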
Mtb growth: M. tuberculosis H37Rv growth inhibitors, H37Rv strain (AID 1626). one-dose inhibition, % at 10 µM; IC50 in µM for titrated hits. 0.95% of 220,000 active. M. tuberculosis H37Rv growth inhibition; higher % means a stronger effect;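 active means confirmed in a dose series; inconclusive means inhibition above 80% but not taken into the dose series; inactive means below 80% or under 30% at every dose of the series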;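 further: bacteria incubated seven days before Alamar blue readout; 0% = bacteria only wells and 100% = bacteria with antibiotic wells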
YopH PTP inh: YopH (Yersinia) phosphatase inhibition; 0.16% of 140,000 active; inhibition, %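 (about 10 µM by stock and volumes)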; AID 898; fluorescence Ex485/Em525;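 active means inhibition of 50% or more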;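 further: controls were vehicle for no effect and minimum signal wells for full effect; inactives centre near -20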
RecA splice inh: inhibitors of M. tuberculosis RecA intein splicing. P9WHJ3. cell-free RecA intein splicing, fluorescence. inhibition, %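 (about 9 µM by stock and volumes)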. 0.75% of 290,000 active. AID 2221; in the data active means inhibition above about 30%; inconclusive means no clear call, values can overlap the other calls;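 further: 0% = vehicle wells and 100% = reference inhibitor control wells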
Target sequence (P9WHJ3 whole entry, looked up, canonical isoform): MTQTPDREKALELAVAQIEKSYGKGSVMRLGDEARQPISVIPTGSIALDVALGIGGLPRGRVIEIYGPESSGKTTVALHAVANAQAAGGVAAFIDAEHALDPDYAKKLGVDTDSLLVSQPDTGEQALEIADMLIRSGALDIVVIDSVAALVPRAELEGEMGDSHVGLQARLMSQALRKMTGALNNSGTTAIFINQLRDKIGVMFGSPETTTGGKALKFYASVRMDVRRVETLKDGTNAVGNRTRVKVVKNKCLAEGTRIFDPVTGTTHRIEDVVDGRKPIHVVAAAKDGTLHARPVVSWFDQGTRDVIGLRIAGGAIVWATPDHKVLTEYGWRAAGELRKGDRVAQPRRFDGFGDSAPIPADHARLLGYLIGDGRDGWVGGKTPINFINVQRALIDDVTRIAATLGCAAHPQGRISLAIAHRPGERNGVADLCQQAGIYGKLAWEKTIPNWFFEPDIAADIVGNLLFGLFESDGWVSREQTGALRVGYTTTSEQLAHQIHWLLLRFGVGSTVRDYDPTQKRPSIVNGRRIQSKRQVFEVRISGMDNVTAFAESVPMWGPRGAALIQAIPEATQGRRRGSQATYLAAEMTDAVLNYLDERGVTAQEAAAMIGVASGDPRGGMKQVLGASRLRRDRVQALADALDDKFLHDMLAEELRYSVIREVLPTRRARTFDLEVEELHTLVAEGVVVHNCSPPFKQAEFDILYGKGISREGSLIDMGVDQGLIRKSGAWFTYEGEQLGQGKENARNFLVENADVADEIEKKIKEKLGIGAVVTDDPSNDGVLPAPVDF
Arbovirus inh: blocks arbovirus infection; arbovirus infection cell-based antiviral screen; 0.37% of 200,000 active; inhibition, % at 10 µM;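 active means inhibition from about 30%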;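 further: bluetongue infection of BSR cells; cell survival read as ATP light after 72 h; 0% = infected wells without compound and 100% = uninfected wells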
Arbovirus inh repeat: recorded beside Arbovirus inh, whose call it bears; inhibition, %; measured here: 10K subset replicate screen; many hits read low in the repeat;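 first of two repeat runs on a subset; 0% = infected and 100% = uninfected wells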
* hit, by the source's call; u = inconclusive; x = not tested or not shown. Some of the compounds tested (hit frequency here may not be typical).

SMILES | Mtb betalactam | Mtb growth | YopH PTP inh | RecA splice inh | Arbovirus inh | others
CCOc1cc(CNn2c(C)nnc2SCC(=O)NC(C)(C)C)ccc1OCC(=O)NC(C)(C)C | -3 | 1% | x | 0.7 | 2
CN1CCN(c2ccc(S(=O)(=O)N3CCCCC3)cc2NC(=O)c2ccc3ccccc3c2)CC1 | 48 | 35% | -8 | -0.2 | 4
Cc1ccc(C2CC(c3cccc(C)c3)n3nc(N)nc3N2)cc1 (centres undefined) | -2 | 0% | -16 | 1.2 | 5 | Arbovirus inh repeat=9
Oc1ccc(-c2csc(Nc3ccccn3)n2)cc1 | 8 | x | x | 3.6 | x
COc1cccc(NC(=O)CCCN2C(=O)C3CC=CCC3C2=O)c1 (centres undefined) | 0 | x | x | 1.3 | x
Nc1ccc(N2CCOCC2)cc1C(F)(F)F | -3 | 4% | x | -4.0 | -4
COc1ccccc1N1CCN(/N=C/c2cccc(Cl)c2)CC1 | 2 | x | x | 7.0 | x
Cc1cc(=O)n2c(sc3ccccc32)c1C#N | -1 | -2% | x | 4.5 | -3
CC(C)(C)C(=O)Nc1cccc(S(=O)(=O)NC2=NCCC2)c1 | -8 | x | x | -1.1 | x
COc1cccc(/C=N\NC(=O)C2=NNC(=O)C2C)c1O (centres undefined) | 11 | -1% | -32 | -4.6 | -24
COC(=O)C1=C(C)NC(=O)C1(NC(=O)c1ccncc1)C(F)(F)F (centres undefined) | 4 | 2% | x | 0.3 | 3
O=C(OCCOCCN=C1NS(=O)(=O)c2ccccc21)c1ccc(F)cc1 | 0 | x | x | 1.1 | x
NS(=O)(=O)c1ccc(CCNC(=O)c2ccc3c(c2)OCO3)cc1 | -5 | x | x | -0.2 | x
COc1cccc(NC(=O)COc2cccc(-n3cnnn3)c2)c1 | 0 | -9% | x | 1.2 | -9
c1ccc(C[n+]2cccc(-c3ccccc3)c2)cc1 | -1 | 1% | -23 | 0.4 | -4
CC1CCc2sc(C(=O)NNC(=O)c3ccncc3)cc2C1 (centres undefined) | 83 | x | x | 2.8 | x
O=C(CCc1c[nH]c2ccccc12)NCC1CCCO1 (centres undefined) | -5 | -12% | -45 | -0.2 | -4
CCOC(=O)c1c(-n2c(C)cc(C=C3C(=O)NC(=S)NC3=O)c2C)sc2c1CCCC2 | 2 | -9% | -24 | -1.7 | -44
Cc1ccccc1-c1nc(Cc2ccc(Cl)cc2)no1 | 5 | -6% | -15 | 4.8 | -1
CCN(CC)S(=O)(=O)N1CCC(C(=O)NC(C)CCc2ccccc2)CC1 (centres undefined) | -6 | -4% | -9 | -0.2 | 5
CCOc1ccc(OCCC(=O)NNC(=O)c2ccccc2Cl)cc1 | 1 | x | x | -1.6 | x
CC1=CC(=O)C(C(C)C)=C/C1=N/OS(=O)(=O)c1ccccc1 | 100 | 76% | x | 9.8 | x
COc1ccc(CCNc2ccc(S(N)(=O)=O)cn2)cc1 | -2 | x | x | -3.2 | x
Cc1ccc(-c2nn3c(C)nnc3c3ccccc23)cc1S(=O)(=O)NCc1ccco1 | 6 | 10% | 2 | -0.5 | -16
CN(c1ccc(C(=O)NCc2ccccc2)cc1)S(C)(=O)=O | 1 | 0% | -23 | 0.4 | 7
O=S(=O)(c1ccc(Cl)s1)N1CCN(c2ncccn2)CC1 | 3 | 1% | -16 | -0.5 | 9
Cn1c(N)c(C(=O)COC(=O)C2(c3ccc(F)cc3)CCCC2)c(=O)n(C)c1=O | 2 | 23% | -29 | -0.7 | -3
COc1ccc(Cc2nnc(SCC(=O)N3CCCC3)o2)cc1 | 2 | 2% | x | -1.5 | -2
Cc1ccnc(N2C(=O)C3C4CC(C(Br)C4Br)C3C2=O)c1 (centres undefined) | 0 | -1% | -25 | -5.1 | 8
COc1ccc(C(=O)NCc2nnc(SCC(=O)c3ccccc3)o2)cc1 | 2 | x | x | -0.4 | x
CC(C)Sc1nc2c(cnn2-c2ccc(Cl)cc2)c(=O)[nH]1 | 1 | x | x | -1.1 | x
COC(=O)c1cc(Cl)c(NC(=O)Cc2ccccc2)cc1OC | 4 | 7% | x | 0.2 | -6
O=C(Nc1cccc2ccccc12)NC1CCCCC1 | 0 | x | x | 1.4 | x
Cc1nn(-c2ccccc2)c2sc(C(=O)N3CCc4ccccc4C3)cc12 | x | 6% | -18 | x | -1
CS(=O)(=O)N(CC(=O)N1CCN(Cc2ccccc2)CC1)c1cccc(Cl)c1 | 3 | x | x | -0.2 | x
O=[N+]([O-])c1cccc(-c2cnc3ccccc3n2)c1 | 1 | 3% | x | 1.1 | x
CCN(CC)c1ncnc2c1ncn2Cc1c(Cl)cccc1Cl | -2 | 9% | 7 | -0.4 | 2
COc1ccc(C(=O)N/C(N)=N/c2nc3ccccc3o2)cc1 | 68 | 0% | -40 | 2.5 | -4
CC1(C)CC2CC(C)(CN2c2ncnc3ccccc23)C1 (centres undefined) | 8 | 2% | -9 | 2.6 | 2
O=C(COC(=O)c1cc(S(=O)(=O)N2CCCCC2)ccc1Cl)NCc1ccco1 | -5 | -5% | x | 0.1 | -1
O=C(Nc1cccc(Cl)c1)c1cc(S(=O)(=O)NCCc2ccc(Cl)cc2)ccc1F | 8 | 14% | -10 | 5.0 | -35
CCOC(=O)C1C(=O)NC(N2CCN(c3ccccc3)CC2)=NC1c1ccccc1 (centres undefined) | -1 | 0% | -27 | 1.9 | 1
c1cc(C2CCN(Cc3nc(-c4ccc5c(c4)OCO5)no3)CC2)ccn1 | 1 | 8% | x | -0.4 | 5
Cc1cccc(NS(=O)(=O)c2ccc(Cl)cc2)n1 | 2 | x | x | -0.6 | x
Cc1nc(CNC(=O)c2ccccc2OC2CCN(S(C)(=O)=O)CC2)cs1 | 4 | -11% | x | 3.5 | -6
Cc1ccc(CNC(=O)CN2C(=O)COc3ccc(S(=O)(=O)N4CCC(C)CC4)cc32)o1 | -1 | x | x | 1.8 | x
COc1ccc(NC2(c3ccccc3)OC(=O)c3ccccc32)cc1 (centres undefined) | 2 | -6% | x | -1.8 | 4
O=C(O)C1Cc2ccccc2CN1S(=O)(=O)c1ccc(Cl)cc1 (centres undefined) | -3 | -6% | x | 2.8 | 1
COc1ccc(CNC(=O)C(c2cccs2)N(Cc2ccco2)C(=O)Cc2cccs2)cc1 (centres undefined) | 4 | 4% | -3 | 7.5 | 11
O=C(CSc1nnc(CNC(=O)c2c(F)cccc2F)o1)NCc1ccccc1Cl | -8 | x | x | 0.7 | x

The listing continues.
SMILES | Mtb betalactam | Mtb growth | YopH PTP inh | RecA splice inh | Arbovirus inh | others
CC1CCN(S(=O)(=O)c2nnc(NC(=O)c3cccc(Cl)c3)s2)CC1 | 4 | x | x | 1.3 | x
COC(=O)CC1COc2ccccc2N1C(=O)c1ccc(C(C)(C)C)cc1 (centres undefined) | 4 | 4% | -38 | 11 | 16
Cc1cccc(C)c1NC(=O)C1CCN(C(=O)c2cccs2)CC1 | -4 | x | x | -0.1 | x
O=C(O)c1cc(O)c2c(c1)C(=O)c1cccc(O)c1C2=O | 38 | 11% | -44 | 4.3 | 2
O=C(CC(=O)NCc1ccc(Cl)cc1)NCc1ccccc1 | u | x | x | -1.2 | x
CCSc1nc2ccccc2n1C(=O)/C=C/c1ccc(OC)c(OC)c1 | 11 | 4% | -26 | 2.9 | -35
COc1ccc(CC(=O)Nc2ccc(/C(C)=N/NC(=O)c3ccc(OC)cc3OC)cc2)cc1 | 0 | x | x | -1.1 | x
CCc1ccc(C(=O)C[n+]2cccc3cc(OC)ccc32)cc1 | 12 | x | x | 2.3 | x
Cc1cccn2c(=O)c3cc(C(=O)NC4CCCC4)sc3nc12 | 7 | x | x | -30 | x
CCN1CCN(c2ccc(S(=O)(=O)N3CCCCC3)cc2NC(=O)Cc2c(Cl)cccc2Cl)CC1 | 5 | x | x | 1.1 | x

Grouped by structure: the compounds so far containing a COOH group.
SMILES | Mtb betalactam | Mtb growth | YopH PTP inh | RecA splice inh | Arbovirus inh | others
O=C(O)C1Cc2ccccc2CN1S(=O)(=O)c1ccc(Cl)cc1 (centres undefined) | -3 | -6% | x | 2.8 | 1
O=C(O)c1cc(O)c2c(c1)C(=O)c1cccc(O)c1C2=O | 38 | 11% | -44 | 4.3 | 2

Continuation:
SMILES | Mtb betalactam | Mtb growth | YopH PTP inh | RecA splice inh | Arbovirus inh | others
Cc1ccc(S(=O)(=O)N(CC(=O)NC2CCCCCC2)c2ccccc2F)cc1 | -2 | -9% | -9 | -3.2 | -3
CC(=O)N=c1c(C#N)cc2c(=O)n3ccccc3nc2n1Cc1ccccc1 | 1 | 1% | -21 | -57 | -5
O=C1C=C(N2CCN(C(=O)c3ccccc3)CC2)C2(CCCCC2)O1 | -7 | -7% | -26 | -0.5 | 7
O=C(O)CCCCCNC(=O)c1cccc(Br)c1 | -10 | -2% | -27 | 1.4 | 7
CCOP(=O)(c1ccc(N(C)C)cc1)C(O)c1cccnc1 (centres undefined) | -2 | -5% | x | -1.1 | x
CN1CC(=O)N2C(c3cccc([N+](=O)[O-])c3)c3[nH]c4ccccc4c3C[C@H]2C1=O (some centres undefined) | 7 | x | x | 1.1 | x
O=C(NC1CCCc2ccccc21)c1ccccc1 (centres undefined) | 1 | 13% | -11 | 1.7 | 5
CCCCCC(=O)Oc1cccc(N2C(=O)C3CCCCC3C2=O)c1 (centres undefined) | -10 | 8% | x | -0.5 | 7
O=C(OCC(=O)N1c2ccccc2Sc2ccccc21)c1cccnc1 | 7 | 7% | x | -1.9 | 2
O=S(=O)(Nc1ccc(N2CCOCC2)cc1)c1ccccc1 | 1 | 6% | -14 | x | 4
Cc1c(Cl)cccc1NC(=S)Nc1ccccn1 | -2 | 4% | x | -1.4 | 3
CN(C)CCN=Cc1c(O)n(Cc2ccc3c(c2)OCO3)c(=O)c2ccccc12 | 3 | -1% | x | 3.3 | 15
OC(CNCc1ccc(F)cc1)(c1ccc(F)cc1)c1ccc(F)cc1 | -9 | -2% | -34 | 0.0 | 3
CCOC(=O)c1c(-c2ccco2)csc1NC(=O)COC(=O)c1cnc(C)cn1 | 5 | x | x | 2.1 | x
O=C(Nc1ccc2c(c1)OCCO2)c1ccc(Br)s1 | 6 | 1% | -19 | 2.1 | -2
CCCNC(=O)Nc1ccsc1C(=O)OC | -3 | -2% | x | 0.2 | -2
O=C(c1cc(-c2cccc(O)c2)on1)N1CCc2ccccc2C1 | -6 | -6% | -16 | 9.0 | 13 | Arbovirus inh repeat=10
CN(C)C(=O)c1ccc(NC(=O)c2ccccc2-c2ccccc2)cc1 | -4 | x | x | 0.2 | x
COc1ccc(N2CCN(c3cc(C)nc4ccc(OC)cc34)CC2)cc1 | 60 | x | x | 0.7 | x
CCOc1ccc(NC(=O)CSc2nccn(-c3ccc4c(c3)OCCO4)c2=O)cc1 | 4 | x | x | 1.6 | x
Cc1cc(C)n(CC(O)Cn2c(C)c(C)c3ccccc32)n1 (centres undefined) | -1 | 8% | -21 | 1.2 | 8
Cc1ccc(N2C(=O)C(Cl)=C(N3CCN(C)CC3)C2=O)c(C)c1 | 96 | 9% | -34 | 81* | 8
Cc1ccc2c(C)ccc(O)c2n1 | -3 | -9% | -4 | x | -4
CCc1ccccc1NC(=O)/C(=C/c1ccco1)c1ccccc1 | 9 | 22% | -13 | 3.5 | -3
O=C(COC(=O)c1ccncc1)NCc1ccccc1 | 57 | -5% | -26 | -0.8 | 5
CC1(C)CC(=O)C(C(C2=C(O)CC(C)(C)CC2=O)c2cccnc2)C(=O)C1 (centres undefined) | 68 | 1% | -40 | -3.3 | 1
COc1ccc(CCNC(=O)C2CC3Cn4c(nc5cc(C)c(C)cc54)C3N2C)cc1 (centres undefined) | -7 | -2% | x | 1.6 | x
COc1cc(C(C[N+](=O)[O-])c2c(-c3ccccc3)cc3ccccn23)cc(OC)c1OC (centres undefined) | u | x | 0 | -1.7 | -33
CCN(CC(=O)NCc1ccc(Cl)cc1)C(=O)Cc1ccccc1[N+](=O)[O-] | -3 | x | x | -2.2 | x
CCN(CC)C(=O)CSc1nnc(-c2cc(-c3ccc(Cl)cc3)nc3ccccc23)o1 | 5 | -1% | -25 | 3.3 | -1
O=Cc1ccc(-n2cncn2)cc1 | 1 | 0% | x | 1.9 | 0

Some of these compounds in order of molecular weight, highest first:
SMILES | Mtb betalactam | Mtb growth | YopH PTP inh | RecA splice inh | Arbovirus inh | others
COc1cc(C(C[N+](=O)[O-])c2c(-c3ccccc3)cc3ccccn23)cc(OC)c1OC (centres undefined) | u | x | 0 | -1.7 | -33
Cc1cc(C)n(CC(O)Cn2c(C)c(C)c3ccccc32)n1 (centres undefined) | -1 | 8% | -21 | 1.2 | 8
O=C(COC(=O)c1ccncc1)NCc1ccccc1 | 57 | -5% | -26 | -0.8 | 5
O=Cc1ccc(-n2cncn2)cc1 | 1 | 0% | x | 1.9 | 0
